Tgondii IFNg: T. gondii growth inhibition with IFN-gamma, primary screen, cell-based | AID 1259416, 2018 | Toxoplasma gondii growth in IFN-gamma-treated host cells; hits give low values; reference of the scale not given here | activity change, negative = inhibition, %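 (about 20 µM by stock and volumes)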 | actives 3.8% (n = 69,000);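 active means below -70%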;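 further: host cells are HeLa cells infected with Toxoplasma gondii; parasite growth read as luciferase light; one replicate is shown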
* marks the source's active call; other numbers are inactive results; i = inactive; & = joins results of further samples. A portion of the library, so the mix of outcomes need not match the whole.

Preview:
SMILES	Tgondii IFNg
Cc1oc(C2CCN(C(=O)c3ccncc3)CC2)nc1C(=O)N1CCSCC1	26.8
Cc1oc(-c2ccccc2)nc1Cn1c(=O)cc(C(=O)N2CCCCC2)c2ccccc21	8.4
Cn1ccnc1CN1CCC2(CC(=O)N(c3ccccc3)C2)C1 (stereo not given)	12.5

Main list, repeating the preview:
SMILES	Tgondii IFNg
Cc1oc(C2CCN(C(=O)c3ccncc3)CC2)nc1C(=O)N1CCSCC1	26.8
Cc1oc(-c2ccccc2)nc1Cn1c(=O)cc(C(=O)N2CCCCC2)c2ccccc21	8.4
Cn1ccnc1CN1CCC2(CC(=O)N(c3ccccc3)C2)C1 (stereo not given)	12.5
Cc1ccc(NC(=O)CNCCOc2ccccc2)c(C)c1	0.6
COCCNC(=O)C1CN(c2ncccn2)Cc2ccnn2C1 (stereo not given)	1.1
O=C(CN1CCN(S(=O)(=O)N2CCCC2)CC1)Nc1ccc(N2CCCC2)cc1	1.5
COC(=O)c1ccc(-c2noc(CN3CC=CC3)n2)cc1	-20.9
COc1cc(CN2CC3(CCN(S(=O)(=O)c4cn(C)cn4)CC3)c3c(n(C)c4cc(OC)ccc34)[C@H]2CO)cc(OC)c1	-5.7
Cc1nnsc1CN(C)Cc1cccc(C(=O)Nc2cnn(C)c2)c1	-2.5
COc1ccc(-c2nc(NCC3CCN(Cc4ccccc4F)CC3)c3ccccc3n2)cc1	-50.2
CC(C)(C)c1ccc(-c2noc(CSc3n[nH]c(=O)n3Cc3ccco3)n2)cc1	-62.5
Cc1ccc(C(=O)N2CCCC3(CCNCC3)CC2)cc1Cl	73.4
C[C@@H]1CN([C@H](C)CO)C(=O)c2cc(NC(=O)C3CCCCC3)ccc2O[C@@H](C)CCCCO[C@H]1CN(C)C(=O)CCC(F)(F)F	123.7
CN1C(=O)c2cc(NC(=O)Nc3ccccc3Cl)ccc2OC[C@H]2O[C@@H](CC(=O)NCCCN3CCOCC3)CC[C@H]21	1.1
O=c1c2ccccc2c(-c2ccccc2)nn1CN1CCCCC1	-24.2

Quoted at random: two records from the list
SMILES	Tgondii IFNg
COc1cc(CN2CC3(CCN(S(=O)(=O)c4cn(C)cn4)CC3)c3c(n(C)c4cc(OC)ccc34)[C@H]2CO)cc(OC)c1	-5.7
O=c1c2ccccc2c(-c2ccccc2)nn1CN1CCCCC1	-24.2

(listing goes on)
SMILES	Tgondii IFNg
CCc1ccc(NC(=O)CN2C(=O)CCc3cc(S(=O)(=O)N4CCCCC4)ccc32)cc1	-97.3*
CCOCC1CN(Cc2c(C)noc2C)Cc2ncn(C)c21 (stereo not given)	-47.4
O=S(=O)(c1ccc(Cl)c(Cl)c1)N1CCn2c(nc3ccccc32)C1	-6.7
O=C(NC1CCN(C(=O)c2cccs2)CC1)c1ccccc1	48.8
c1cncc(OCC2CN(Cc3ccco3)Cc3ccnn3C2)c1 (stereo not given)	15.2
Cc1cc(Nc2nncs2)nc(C2CCCN(Cc3ncc[nH]3)C2)n1 (stereo not given)	-4.1
CN(C)CC(=O)N1[C@H](C(=O)NC2CCC2)[C@@H](CO)[C@@H]2Cn3c(ccc(-c4cccc(F)c4)c3=O)[C@@H]21	-2.6
CC(C)c1cc(C(=O)NCc2nc(-c3ccccc3)no2)n(C)n1	-100.0*
COc1ccc(NC(=O)c2ccc3nnc(C4CN(C(=O)N(C)C)CCN4C)n3c2)cc1 (stereo not given)	-40.4
COc1ccc(S(=O)(=O)N2CC3(CN(C(=O)CN(C)C)[C@@H](CO)c4c3c3ccc(OC)cc3n4C)C2)cc1	-27.9
O=C(Nc1nccs1)c1ccc2c(c1)C(=O)N(c1ccccc1-c1ccccc1)C2=O	8.0
CC(C)(CO)CCCn1cncc1-c1cnc(N2CCOCC2)s1	1.8
Cc1cc(NCCNC(=O)c2cccc(N3CCOCC3)c2C)c2ccccc2n1	-2.3
Cc1ccc(Nc2nc(C(=O)NCCN3CCCC3)nc3ccccc23)cc1	25.5
COCCC(=O)C1Cc2nc(-c3cccc(OC)c3)sc2N1C(C)C (stereo not given)	-34.2
O=C(C[C@H]1C=C[C@@H](NC(=O)c2ccc3c(c2)OCO3)[C@H](CO)O1)NC1Cc2ccccc2C1	41.6
Cc1ccccc1-c1cccc(CN2CCN(C3CCN(C(C)C)CC3)C(CCO)C2)c1 (stereo not given)	-47.2
CCOC(=O)CSC(=S)NCc1ccccc1	28.8
O=C(NCc1ccc2c(c1)OCO2)[C@H]1C=CCN1S(=O)(=O)c1cccc2nonc12	22.9
COc1ccc(CCC(=O)NCCc2csc(-c3ccccc3)n2)cc1	i
Nc1nc(NCc2ccco2)nn1-c1ccccc1	2.7
O=C(Cc1cccnc1)N1CCCC2(CCN(C(=O)c3ccco3)C2)C1 (stereo not given)	-9.0
CCOc1ccc2nc(NC(=O)Cc3ccc(OC)cc3)sc2c1	3.6
COC(=O)c1c(NCc2cccnc2)c2cccc(Cl)c2[nH]c1=O	17.5
CCn1c(C2CCN(C(=O)c3cc4c(C)cccc4n3C)CC2)n[nH]c1=O	0.2
Cc1ccc(-c2ccc(N)nc2)c2cccnc12	13.6
O=C(N1CCCC1)N1CCC2(CC1)CN(Cc1cccnc1)CC21CCNC1=O (stereo not given)	-0.9
CCOC(=O)N1CCC(NCCC(=O)N2CCc3ccccc3C2)CC1	-14.0
O=C(NCC1CCCCC1)[C@@H]1[C@@H](CO)[C@@H]2Cn3c(cccc3=O)[C@H]1N2C(=O)c1ccncc1	11.1
COc1ccccc1OCC(=O)N(C)Cc1cn[nH]c1-c1ccc(F)cc1	5.3
CCOc1cc(-c2nc3ccc4ccccc4c3c3c2CCCC3)ccc1O	-58.5
COc1cccc(C(=O)N2CCC(Cc3nncn3C)CC2)c1OC	2.6
O=C(c1cc2n(n1)CCN(C(=O)C1COCCO1)C2)N1CCCC1 (stereo not given)	-28.4
CC(C)n1cnc(C2CN(C(=O)c3ccccc3)c3ccc(C(=O)N(C)C)cc32)n1 (stereo not given)	24.7
CC1(C)C(=O)[C@@H]2C[C@@]3(O)C4=CC(=O)O[C@@H](c5ccoc5)[C@]4(C)CCC3[C@@](C)(C2=O)[C@H]1CC(=O)O (stereo not given in full)	16.5
COc1ccc(Cn2c(=O)[nH]c3cc(C(=O)O)ccc32)cc1	25.9
COc1ccc(S(=O)(=O)Nc2ccc(-c3nc(-c4ccc(C)cc4C)co3)cc2)cc1	-51.5
COCC(=O)N1CC(=O)N2[C@H](CO)[C@H](c3ccc(-c4ccncc4)cc3)[C@@H]2C1	-16.5
CN(C)C(=O)CN1CCC2(CCCN2c2nncs2)CC1	23.2
CCCc1cnc(-c2ccc(C)c3ncccc23)nc1	4.8
CN(C)C(=O)COCC1c2c(ncn2C)CCN1Cc1nccn1C (stereo not given)	-2.7
Cc1ccc(CN(C(=O)c2ccc3c(c2)ncn3CCO)C2CCCC2)s1	-7.2
CCOc1ccccc1-c1nc(CSc2nc3c(=O)[nH]cnc3n2-c2ccc(C)cc2)c(C)o1	120.4
Fc1cnc(N2CCC3(COCc4cnc(-c5ccccc5)nc43)C2)nc1 (stereo not given)	-8.0
C=Cn1c(C(=O)C(F)(F)F)ccc1-c1ccc(OC)cc1	20.5
Cn1cc(N2C(=O)CC3C2CCN3CCc2ccccc2)cn1 (stereo not given)	-14.5
COc1ccc2c(c1)NC1(CCN(C(=O)c3ccc(C(C)(C)C)cc3)CC1)c1cccn1-2	9.2
Cc1cccn2cc(C(=O)Nc3cccc(N4CCCCS4(=O)=O)c3)nc12	197.4
COc1ccc(-c2nc3c(s2)CN(S(=O)(=O)c2ccc(C)cc2)CC3)cc1OC	-87.1*
COc1ccc(CC(=O)N2CC[C@H]3CN(Cc4cccnc4)S(=O)(=O)[C@@H]3CC2)cc1	-1.3
Cc1cc(C)n(CCC(=O)N2CCc3c(nc(N4CCCC4)[nH]c3=O)C2)n1	-9.4
CC1CCN(S(=O)(=O)c2ccc3c(c2)CCC(=O)N3CC(=O)N(C)C2CCCCC2)CC1	-3.9
CCC(C(=O)NCC1(CO)CCC1)n1cc(C(C)=O)c2ccccc21 (stereo not given)	-22.4
Cc1nccc(CN2CCN(S(=O)(=O)N3CCCCC3)CC2)n1	46.4
CCOc1ccccc1-c1nc(Cn2ccn3nc(-c4ccc(F)cc4)cc3c2=O)c(C)o1	32.8
Cc1cc(N2CCNC(C(=O)O)C2)nc(-c2ccccc2)n1 (stereo not given)	-7.9
COc1ccccc1C1OC(=O)C[C@@H]1C(=O)Nc1nncs1 (stereo not given in full)	14.1
Nc1ccc2[nH]ncc2c1	14.0
O=c1c2c3c(sc2ncn1CCCc1nc2ccccc2s1)CNCC3	17.0
Cn1ccc2cc(S(=O)(=O)N3CCC(C(=O)N4CCN(c5ncccn5)CC4)CC3)ccc21	-3.0

Carrying on.
SMILES	Tgondii IFNg
c1cc2nc3c(nc2c2nonc12)CCCC3	30.1
CCCNc1ncc(CN2CCCC2c2nc(-c3ccccc3)no2)cn1 (stereo not given)	3.6
CCS(=O)(=O)N1CCC2(CC1)CN[C@H](CO)c1c2c2ccc(OC)cc2n1C	16.5
Cc1cc(C)c2c(c1)NC(=O)C2CC(=O)N1CCc2nc[nH]c2C1 (stereo not given)	-3.7
COc1ccc(NC(=O)N(C)C[C@H]2OCc3cnnn3CCCC(=O)N([C@H](C)CO)C[C@H]2C)c(OC)c1	i
COc1ccc(CC(=O)N2CCc3c([nH]c4ccccc34)C2c2ccc(SC)cc2)cc1 (stereo not given)	298.6
Cc1nc2ccccc2c(=O)n1CC(=O)Nc1ccc(N2CCCC2)c2nonc12	0.5
COc1ccc(CN(C)C[C@@H]2OCCCC[C@H](C)Oc3ccc(NC(=O)C4CCCCC4)cc3C(=O)N([C@H](C)CO)C[C@H]2C)cc1	-24.5
COc1cccc(-c2nc(C)c(-c3ccc(SCc4cccc5ccccc45)nn3)s2)c1	-1.4
O=C1CCCc2c1c1ccccc1n2Cc1ccccc1	-46.7
O=S(=O)(NCCc1csc(-c2cccc(F)c2)n1)c1ccc(F)cc1	-22.9
Cc1cc(-c2c(-c3ccccc3)ncn2CC(C)Oc2cccnc2)n[nH]1 (stereo not given)	1.4
CCc1cc(N2CCC(c3nn(C)c(=O)n3-c3ccccc3)CC2)ncn1	-9.1
COc1ccc(OC)c(-c2ncc(C)cc2Cl)c1	-9.0
O=C(c1cn(-c2ccccc2)nn1)N1CCC(C(O)c2ccccn2)CC1 (stereo not given)	-10.3
CCOc1ccc(C(=O)N2CC[C@@H](c3sccc3C)[C@H](O)C2)o1	-52.5
c1ccc(CCNCc2nc(-c3ccco3)no2)nc1	-40.8
CC(C)NC(=O)[C@]12CCO[C@@H]1CCN(Cc1nccs1)C2	-0.4
CCCc1nc(N2CCC3(CC2)CN(C)C(=O)O3)c2cnn(C)c2n1	30.0
COc1ccccc1N1CC(NC(=O)C(C)Cn2cnc3ccccc32)CC1=O (stereo not given)	15.3
CCOc1ccc2nc(NC(=O)c3ccc(OC)c(OC)c3)sc2c1	-24.5
O=C(CC(F)(F)F)N1C[C@@H]2[C@H](c3ccccc31)[C@H](CO)N2Cc1cccnc1	-10.7
CC(=O)N[C@@H](C=O)[C@@H](O)[C@H](O)[C@H](O)CO	41.3
COc1ccccc1C(=O)NCCc1nc(-c2ccccc2)ncc1C(=O)N1CCOCC1	9.7
CCC(=O)N1C[C@H](C)[C@@H](OC)CN(C)C(=O)c2ccc(NC(=O)CC(F)(F)F)cc2OC[C@@H]1C	10.1
CC(C)(C)c1ncc2c(n1)CN(C(=O)Cn1nc3ccccc3n1)C2	4.5
Clc1ccc(C2=NN(c3ccccc3)C(c3csc(-c4ccccc4)n3)C2)cc1 (stereo not given)	35.5
O=C(c1n[nH]c2ccccc12)N1CCCC(c2[nH]ncc2-c2ccccc2)C1 (stereo not given)	-8.8
CCC(=O)N1CCC2(CC1)CC(CC(=O)Nc1cccnc1)c1ccccc1O2 (stereo not given)	-3.3
N#Cc1cccc(-c2ccc3c(c2)[C@H]2[C@H](CCN2S(=O)(=O)c2ccc(F)cc2)[C@@H](CO)N3)c1	-42.4

Seven compounds already listed, sorted by number of heavy atoms, ascending.
SMILES	Tgondii IFNg
c1ccc(CCNCc2nc(-c3ccco3)no2)nc1	-40.8
CC(C)NC(=O)[C@]12CCO[C@@H]1CCN(Cc1nccs1)C2	-0.4
CCOc1ccc2nc(NC(=O)c3ccc(OC)c(OC)c3)sc2c1	-24.5
O=C(c1n[nH]c2ccccc12)N1CCCC(c2[nH]ncc2-c2ccccc2)C1 (stereo not given)	-8.8
COc1ccccc1N1CC(NC(=O)C(C)Cn2cnc3ccccc32)CC1=O (stereo not given)	15.3
COc1ccccc1C(=O)NCCc1nc(-c2ccccc2)ncc1C(=O)N1CCOCC1	9.7
CCC(=O)N1C[C@H](C)[C@@H](OC)CN(C)C(=O)c2ccc(NC(=O)CC(F)(F)F)cc2OC[C@@H]1C	10.1

Next section:
SMILES	Tgondii IFNg
COc1ccc(CN(C(=O)c2cccs2)c2nccs2)cc1OC	-3.9
CCc1nn(CCCN2CCN(c3cccc(Cl)c3)CC2)c(=O)n1CCOc1ccccc1	-4.5&13.7
CC(C)CN1CC2(CCN(C(=O)Cc3ccc(Cl)cc3)C2)C1	-3.1
CCS(=O)(=O)Nc1ccc2c(c1)C(=O)N(C)[C@H]1CC[C@@H](CC(=O)NCc3ccc(OC)cc3)O[C@H]1CO2	-19.3
CC(=O)c1c(C)nc2ccc(C)cc2c1-c1ccccc1	-6.5
O=C(Cn1ncc2c(N3CCCC3)ncnc21)Nc1ccc(Br)cc1	195.1
COC1CCN(S(=O)(=O)N2CC(c3ccccn3)C2)CC1	-3.7
COCCN1C(=O)CCc2cc(NC(=O)c3cccc(C(F)(F)F)c3)ccc21	-50.6
COc1cccc([C@@H]2CCN(C3CCN(S(C)(=O)=O)CC3)C[C@H]2O)c1	-44.7
COc1ccc(C)cc1NC(=O)C(=O)NCCc1sc(-c2ccc(Cl)cc2)nc1C	147.0
Cc1nn(C)c(Cl)c1CN1CCN(c2nnc(C(F)(F)F)s2)CC1	-1.2
CC(=O)N[C@@H]1c2ccccc2C2(CCN(C(=O)/C=C/c3ccccc3F)CC2)[C@H]1OCc1ccccc1	0.7
Cc1cccc(S(=O)(=O)N[C@@H]2CC[C@@H](CCNC(=O)Nc3cc(F)ccc3F)O[C@@H]2CO)c1	-25.6

Source: PubChem (Broad Institute)
